ALR inh – human ALR oxidase inhibition via reduced H2O2; P55789; purified ALR, DTT oxidation, H2O2 HRP-luminol luminescence; inhibition, % (concentration not given with the values); 290,000 compounds, 3.8% hits;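 active = mean and each replicate at 75% or more; inconclusive = only one of the two met; inactive = neither met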;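 also: stock transfer was 7.5 nL into about 7.5 µL; 0% = neutral wells and 100% = wells with inactivated enzyme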
Ecoli rRNA inh – inhibits bacterial ribosomal RNA function over humanized ribosomes; 350,000 compounds, 1.6% hits; GFP signal change (wild-type ribosome), % (concentration not given with the values); AID 720706; E. coli WT GFP vs humanized-ribosome RFP mutants, fluorescence, 24 h; hits give low values; DMSO median 0, no signal -100;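 active = significant combined selectivity score with lowered wild-type GFP, culture density cut under 30%, mutant RFP and density less affected; inactive = any of these conditions unmet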; also: one replicate is shown; some compounds called inactive have numbers as strong as hits
HNF4A DNA FP – change in binding of human HNF4 alpha to DNA; AID 1224865; HNF4a-FITC DNA binding, fluorescence polarization, 1 h; P41235; 360,000 compounds, 0.3% hits; activity change, % at 10 µM; in the data active = activity change above about 30%, passing the limit was not always enough;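 also: controls were the assay level and a saturating level of protein; the project sought stronger binding though the title names inhibitors; some compounds called inactive have numbers as strong as hits; positive values seem to mean higher polarization but the record does not say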
E coli growth – E. coli growth inhibition; Escherichia coli growth, OD600, 23 h; hits give low values; OD600 absorbance (test concentration not listed); 330,000 compounds, 0.21% hits; AID 1053175;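 active = OD600 absorbance below the run mean of sample wells minus 3.6 SD, in any replicate, cut at about 0.56 in these data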;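 also: stock transfer was 300 nL into about 60 µL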
UCH37 inh – human UCH37 deubiquitinating enzyme inhibition. inhibition, % (no concentration beside the values). 330,000 compounds, 0.33% hits. Q9Y5K5. purified proteasome/UCH37, Ub-AMC cleavage fluorescence;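 active = mean of two replicates above 20%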;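 also: 0% = compound-free wells with enzyme and 100% = wells lacking proteasome; stock transfer was 100 nL into about 20 µL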
Target sequence (Q9Y5K5 whole entry, looked up): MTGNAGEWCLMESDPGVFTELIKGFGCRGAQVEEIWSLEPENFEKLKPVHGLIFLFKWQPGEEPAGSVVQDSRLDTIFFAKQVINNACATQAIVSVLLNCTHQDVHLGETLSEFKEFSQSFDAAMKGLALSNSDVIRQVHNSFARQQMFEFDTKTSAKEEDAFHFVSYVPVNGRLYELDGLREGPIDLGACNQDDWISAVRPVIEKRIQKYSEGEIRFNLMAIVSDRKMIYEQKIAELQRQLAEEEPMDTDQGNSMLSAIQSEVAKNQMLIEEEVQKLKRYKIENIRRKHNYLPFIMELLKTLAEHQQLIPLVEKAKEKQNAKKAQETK
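Material: Human UCH37 enzyme supplied as purified proteasome complex | Schedule: 30 min compound-proteasome preincubation then 25 min substrate reaction, room temperature | Detection: AMC fluorescence from Ub-AMC cleavage, excitation 355 nm, emission 460 nm | Benchmarks: Wells without proteasome as full block, compound-free enzyme plus substrate as uninhibited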
FGF22 binding – binders of recombinant human FGF22 by thermal shift; Q9HCT0; SYPRO orange fluorescence; percent of sucrose octasulfate shift, DMSO zero; calls only at 9.99 µM; 340,000 compounds, 1.5% hits;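 active = melting point raised past a set limit in the mean and every replicate; inconclusive = no clear call; three in four hits are not shown here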
Target sequence (Q9HCT0 whole entry, looked up): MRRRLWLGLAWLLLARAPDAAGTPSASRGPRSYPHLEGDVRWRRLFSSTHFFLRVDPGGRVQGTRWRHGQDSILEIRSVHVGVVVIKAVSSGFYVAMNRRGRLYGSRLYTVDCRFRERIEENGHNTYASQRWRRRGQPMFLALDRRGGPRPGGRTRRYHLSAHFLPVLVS
B2AR ag – activates human beta-2 adrenergic receptor causing internalization; P07550; Am2.2-beta2AR cells, FAP receptor internalization, flow cytometry; reference of the scale not given here; response, % (concentration not given with the values); 340,000 compounds, 0.43% hits; AID 504454;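 active = response above a set limit, near 3 SD of response in nonfluorescent compounds, cut at about 42% in these data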;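 also: stock transfer was 100 nL into about 11 µL; a reference agonist was the positive control; negative values mostly stem from fluorescent compounds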
Target sequence (P07550 whole entry, looked up): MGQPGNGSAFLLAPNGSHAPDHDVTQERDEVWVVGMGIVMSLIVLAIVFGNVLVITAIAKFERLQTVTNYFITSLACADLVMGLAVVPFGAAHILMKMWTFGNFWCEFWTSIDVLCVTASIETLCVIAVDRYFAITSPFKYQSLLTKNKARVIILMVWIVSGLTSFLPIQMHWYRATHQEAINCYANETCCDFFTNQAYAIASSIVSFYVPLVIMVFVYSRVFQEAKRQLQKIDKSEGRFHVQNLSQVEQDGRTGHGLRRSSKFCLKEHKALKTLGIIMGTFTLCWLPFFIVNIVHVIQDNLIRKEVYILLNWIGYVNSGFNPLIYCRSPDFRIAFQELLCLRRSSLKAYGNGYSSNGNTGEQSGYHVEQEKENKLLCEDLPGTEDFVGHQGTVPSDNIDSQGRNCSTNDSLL
Ecoli rRNA inh OD600 – second read-out of Ecoli rRNA inh, no call of its own (marks repeat the call); OD600 change, %; measured here: OD600 growth;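 optical density of the mix in the first replicate; 0 = DMSO median and -100 = no signal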
Ecoli rRNA inh RFP – also measured in Ecoli rRNA inh; calls as there; RFP signal change, %; measured here: RFP humanized mutant strains;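 first replicate; 0 = DMSO median and -100 = no signal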
* = called active by the depositor; i = inactive; ? = inconclusive; · = not tested or not shown. Some of the compounds tested (hit frequency here may not be typical).

smiles,ALR inh,Ecoli rRNA inh,Ecoli rRNA inh OD600,Ecoli rRNA inh RFP,HNF4A DNA FP,E coli growth,UCH37 inh,FGF22 binding,B2AR ag
O=C(CN1CCOCC1)Nc1c2c(nc3c1CCC3)CCC2,10,·,·,·,3.1,0.76,0.9,·,-4
CC(=O)Nc1ccc(NC(=O)C2CCCN(c3ncccn3)C2)cc1 (stereo unspecified),-3,·,·,·,4.1,0.72,-1.1,·,-1
CCOc1ccc(C2NC(=O)c3sc(=S)n(-c4ccccc4)c3N2)cc1 (stereo unspecified),81*,-2,-8,-5.7,0.2,·,0.9,i,-3
CCCCCCCCCC(=O)OCC(O)CO (stereo unspecified),·,·,·,·,0.6,0.69,-0.4,i,1
Cn1c(=O)n(/N=C/c2ccccc2)c2ccccc21,26,·,·,·,2.0,·,·,·,-6
Cc1ccc(OCCn2cnc3cc([N+](=O)[O-])ccc3c2=O)cc1,13,20,5,1.2,2.7,0.7,3.5,i,13
CC1CC(C)(C)NCc2ccccc21 (stereo unspecified),-19,·,·,·,1.2,0.72,5.2,·,5
COc1ccc(N2CCN(C(=O)CCCCCn3c(=O)[nH]c4ccsc4c3=O)CC2)cc1,69,3,-3,5.1,-1.8,0.7,4.9,i,-8
C=CCn1c(=S)[nH]c2nc3c(cc2c1=O)COC(C)(C)C3,-5,·,·,·,5.2,0.69,-2.5,·,5
COc1ccc(/C(C)=N/NC(=O)CNC(=O)c2cccs2)cc1,1,1,-2,-1.4,-1.9,·,·,i,-5
CC1CCCN(CCOc2cccc(Oc3ccccc3)c2)C1 (stereo unspecified),2,-21,-26,15,-0.2,0.68,2.4,i,2
C[C@H](NC(=O)C1CCN(S(=O)(=O)c2ccccc2)CC1)C(=O)NCc1ccncc1,·,14,17,2.2,-0.4,·,·,i,·
CCN(CC)S(=O)(=O)c1ccc(C(=O)Nc2nnc(NC(=S)Nc3ccccc3)s2)cc1,-6,5,3,1.2,-3.9,0.67,2.0,i,-6
COc1ccc(C)cc1Cn1c(S(C)(=O)=O)nc2ccccc21,11,·,·,·,-4.1,0.7,1.4,·,-5
CC(OCc1ccccc1)C(NC(=O)OC(C)(C)C)C(=O)NCC1CCCO1 (stereo unspecified),-12,·,·,·,-3.9,0.65,4.2,·,1
N#Cc1sc2nccc(Nc3ccccc3)c2c1N,3,·,·,·,4.5,0.66,-83,i,-7
Cc1ccc(S(=O)(=O)NCC2COc3ccccc3O2)cc1 (stereo unspecified),-39,-6,-16,-1.6,-4.2,0.68,0.8,i,9
N#CCCn1nc(Cc2cccc3ccccc23)c(C#N)c1N,0,-10,-8,-1.6,-2.1,0.7,3.4,i,1
Cc1cc2ccccn2c1C(=O)c1ccccc1Br,·,-50,-55,-2.6,-2.4,0.68,-0.7,i,0
CC(=O)N(Cc1cc2c(C)cc(C)cc2[nH]c1=O)C1CCCCC1,5,·,·,·,-2.1,0.69,-2.1,·,30
O=C1C/C(=C/NCc2ccccc2)C(=O)N1,-2,·,·,·,-0.1,0.73,4.0,·,-4
CCOC(=O)C1CCCCN1C(=O)CCn1nnnc1CN1CCOCC1 (stereo unspecified),-33,1,5,-0.9,-1.8,0.69,2.9,i,7
Cc1ccc(C)c(N2CCN(C(=O)c3ccc4c(c3)c(C)c(C)n4C)CC2)c1,45,6,10,30,4.9,0.64,-2.1,i,7
CCOC(=O)Cc1nn(C)c(=O)c2ccccc12,-3,19,5,-1.6,3.4,0.7,-2.4,i,1
CC(C)(C)C(=O)Nc1ccccc1N1CCN(c2ccc(F)cc2)CC1,-13,6,10,-1.3,2.5,0.6,3.1,i,67*
CCOC(=O)C1(Cc2ccc(Cl)cc2)CCN(Cc2ccon2)CC1,-3,-22,-26,-5.5,-1.1,0.68,-0.9,i,-4
Cc1ccc(NC(=O)COc2ccc(N(C)S(=O)(=O)c3ccc(F)cc3)cc2)cc1,1,-6,-26,-0.5,-1.1,0.68,-1.7,i,-3
CCC1=NN(S(=O)(=O)c2ccc(C)cc2)C(O)(C(F)(F)F)C1 (stereo unspecified),-9,17,14,-1.3,2.1,0.69,3.0,i,0
COc1ccc(/C=C2\N=C(c3ccccc3Cl)NC2=O)cc1,·,3,4,-0.3,-2.5,0.65,2.2,i,1
COc1ccc(C2C(C(=O)c3ccco3)=C(O)C(=O)N2CCN2CCOCC2)c(OC)c1 (stereo unspecified),5,3,-7,1.7,1.5,0.65,12,·,2
CCC(=O)NC(=S)Nc1cccc(Cl)c1N1CCCCC1,0,·,·,·,0.1,0.76,2.0,·,7
Cc1cccc(C)c1NC(=O)CNC(=O)c1cn(-c2ccccc2)nc1-c1ccccc1,-12,1,9,-1.0,-1.6,0.7,-1.3,i,-5
COc1ccc(C)cc1NC(=O)CO/N=C(\N)CC(=O)NC1CCCCC1,-7,-3,-3,1.2,3.4,0.7,3.6,i,16
O=C(COCc1cc(-c2ccc3c(c2)OCO3)on1)Nc1cccnc1Cl,0,6,8,-1.8,0.7,0.68,-7.5,i,7
c1ccc2nc(-c3ccc(N4CCOCC4)cc3)ccc2c1,-10,·,·,·,2.6,0.68,-99,·,-5
Cc1ccc(S(=O)(=O)N2CC(CO)=CCC2c2ccccc2)cc1 (stereo unspecified),·,-36,-49,-9.3,3.3,·,·,i,·
NC(=O)C1CCN(C2OC(=O)c3ccccc32)CC1 (stereo unspecified),-8,·,·,·,0.8,0.72,-4.1,·,-2
CN(C(=O)c1ccc(NC(=O)Cc2ccc(NC(=O)C3CCCN(C(=O)c4ccccc4)C3)cc2)cc1)C1CC1 (stereo unspecified),-2,4,5,2.8,2.8,0.69,3.6,i,0
CC(=O)C1=C(C)N(Cc2ccccc2)C(=O)N[C@H]1c1cccc(C(F)(F)F)c1,-13,-32,-36,-6.5,-1.7,·,0.9,i,-5
COc1ccccc1-c1nnc2sc(C3CCCCC3)nn12,-3,·,·,·,-3.6,0.7,3.3,·,-54
O=C(Nc1nnc(-c2ccco2)o1)C1CCCCC1,-11,3,3,1.1,-0.8,0.68,5.4,i,3
O=C(Nn1cnnc1)c1ccc(Cl)cc1,4,2,8,-2.6,-5.1,0.68,6.3,i,-4
O=C(NCc1ccccn1)c1ccco1,-16,2,4,-0.1,-3.0,0.7,-1.6,i,-6
C=CCOc1c(Br)cc(CNn2nnnc2N)cc1OCC,1,·,·,·,4.3,0.8,1.0,·,1
COc1ccc(OCC(=O)Nc2ccc3nc(C)sc3c2)cc1,0,-20,-18,1.6,1.1,0.68,4.3,·,-6
COc1ccc(OCc2nc(N)nc(Nc3cccc(C)c3C)n2)cc1,·,·,·,·,-3.6,0.81,0.2,·,1
Cc1ccc(CNC(=O)c2ccc3c(=O)n4c(-c5ccc(C)cc5)csc4nc3c2)cc1,-12,7,7,4.4,-0.7,0.69,-14,i,-5
COc1ccc(-c2csc(N3CCN(S(=O)(=O)c4ccc5c(c4)NC(=O)CO5)CC3)n2)cc1,0,2,13,3.7,0.6,0.66,0.2,i,9
CCOC(=O)N1CCC(NC(=O)C2CCN(S(=O)(=O)N3CCC(C)CC3)CC2)CC1,·,1,13,3.7,-0.9,0.73,2.1,i,12
CCCCCCOC(=O)Sc1nc2ccccc2o1,55,·,·,·,1.4,0.67,3.1,·,6
CCc1nccn1S(=O)(=O)c1ccc(C)c(C)c1,-3,·,·,·,-1.1,0.72,2.6,·,1
Cc1ccc(OCC(=O)NNC(=O)c2cccnc2)cc1C,6,2,0,0.9,-0.2,0.64,1.8,i,1
CCOC(=O)c1cc(C(=O)NC(C)c2ccccc2)c(=O)[nH]c1C (stereo unspecified),2,10,6,-1.4,-6.2,0.68,-0.8,i,2
CCOc1ccc(Cc2nc(-c3nonc3N)no2)cc1OCC,-5,·,·,·,0.0,·,·,·,-9
CCCCCCOc1ccc(C(=O)NCCCn2ccnc2)cc1,-3,-50,-77,-14,-2.4,0.61,5.0,i,-8
CCOc1cc(/C=C/C(=O)c2ccc3c(c2)OCCO3)ccc1OCC(=O)N(C)C,·,-4,-12,0.3,1.9,0.67,3.8,i,29
Cc1ccc(NC(=O)CSc2ncc3ccccn23)cc1,99*,15,12,3.0,5.3,0.63,-13,i,-2
O=c1oc(-c2ccccc2NS(=O)(=O)c2ccc(Cl)cc2)nc2ccccc12,-12,-34*,-24*,0.2*,-4.5,0.67,-3.8,i,3
CN(CC(=O)NCCc1ccc(Cl)cc1)S(=O)(=O)c1ccc2c(c1)c(=O)n(C)c(=O)n2C,·,2,10,-1.7,0.7,0.72,3.6,i,0
COc1ccccc1NC(=O)C1CC(=O)OC1c1ccccc1 (stereo unspecified),-3,·,·,·,1.6,0.77,4.9,·,0
CCOP(=O)(OCC)C(Nc1cccc([N+](=O)[O-])c1)c1ccc(N(C)C)cc1 (stereo unspecified),?,-19,-21,11,-0.4,0.59,2.9,i,8

An excerpt from above in order of SMILES length, ascending.
smiles,ALR inh,Ecoli rRNA inh,Ecoli rRNA inh OD600,Ecoli rRNA inh RFP,HNF4A DNA FP,E coli growth,UCH37 inh,FGF22 binding,B2AR ag
CCCCCCCCCC(=O)OCC(O)CO (stereo unspecified),·,·,·,·,0.6,0.69,-0.4,i,1
CCc1nccn1S(=O)(=O)c1ccc(C)c(C)c1,-3,·,·,·,-1.1,0.72,2.6,·,1
COc1ccc(OCC(=O)Nc2ccc3nc(C)sc3c2)cc1,0,-20,-18,1.6,1.1,0.68,4.3,·,-6
O=c1oc(-c2ccccc2NS(=O)(=O)c2ccc(Cl)cc2)nc2ccccc12,-12,-34*,-24*,0.2*,-4.5,0.67,-3.8,i,3
CCOC(=O)N1CCC(NC(=O)C2CCN(S(=O)(=O)N3CCC(C)CC3)CC2)CC1,·,1,13,3.7,-0.9,0.73,2.1,i,12

Assay outcomes deposited in PubChem by several laboratories.
